A1 inh – inhibitors of the anti-apoptotic protein A1, read as caspase activation; MEF A1-2A-BIM cells, Caspase-Glo 3/7 luminescence, 3 h; percent of clofoctol response, vehicle zero; caspase activation, % (test concentration not listed); 330,000 tested, 0.066% active; AID 2462;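 active = over half of replicate activation scores above 10%, or exactly half above 10 with the replicate mean above 10; inconclusive = replicate mean below 10 yet half the replicates above 10; inactive = over half of replicates below 10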;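 also: wells of about 30 µL received 50 nL stock; many hits fall short of the cut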
RanGTP-Impb inh – disruptors of Ran-importin-beta complex formation – biochemical, FRET, CFP-Ran, YFP-importin-beta, homogeneous, primary screen | inhibition, % (no concentration beside the values) | cell-free CFP-Ran/YFP-importin-beta FRET ratio | 300,000 tested, 1.1% active;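 active = most replicates above 15%; inconclusive = exactly half above 15%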;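 also: 0% = DMSO wells and 100% = Ran loaded with GDP instead of GTP; wells of about 40 µL received 100 nL stock; the first replicate is given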
Calb FLC – C. albicans growth modulation with fluconazole; AID 1979; 300,000 tested, 0.57% active; C. albicans CaCi-2 (fluconazole-resistant clinical isolate) + fluconazole, Alamar Blue growth, 48 h; growth inhibition, % (concentration not given with the values);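 active = most replicates above 75%; inconclusive = exactly half above 75%; inactive = most below 75%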;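 also: all wells also contain fluconazole at 8 µg/ml as a sub-toxic cotreatment; 0% = median of DMSO wells and 100% = median of geldanamycin control wells; wells of about 8 µL received 7.5 nL stock; the first replicate is given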
T cruzi inh – T. cruzi replication inhibition; T. cruzi beta-gal in NIH3T3, luminescence, 90 h; 300,000 tested, 1.4% active; inhibition, % (no concentration beside the values); AID 1885;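 active = mean inhibition across valid replicates above about 55%, limit read from the data; inconclusive = mean below that limit but half or more replicates reach it; inactive = mean below it, under half of replicates reach it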;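 also: signal also drops with host cell toxicity which is not excluded here; 0% = plate median of DMSO wells and 100% = zero luminescence signal; higher percent means less beta-gal luminescence so fewer parasites; stock transfer was 50 nL into about 50 µL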
MLL AF4-AF9 inh – blocks AF4 peptide binding to human AF9; AlphaScreen, biotin-AF4 peptide binding to FLAG-AF9; inhibition, % at 10 µM; 350,000 tested, 0.47% active;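 active = every replicate reaching a set inhibition limit, whatever the replicate mean, cut at about 25% in these data; inconclusive = mean inhibition reaches that limit but some replicates miss it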;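 also: 0% = plate neutral control median and 100% = total signal loss; the record names both 10 and 1 µM as test concentration; the first replicate is given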
Target sequence (P42568 whole entry, looked up): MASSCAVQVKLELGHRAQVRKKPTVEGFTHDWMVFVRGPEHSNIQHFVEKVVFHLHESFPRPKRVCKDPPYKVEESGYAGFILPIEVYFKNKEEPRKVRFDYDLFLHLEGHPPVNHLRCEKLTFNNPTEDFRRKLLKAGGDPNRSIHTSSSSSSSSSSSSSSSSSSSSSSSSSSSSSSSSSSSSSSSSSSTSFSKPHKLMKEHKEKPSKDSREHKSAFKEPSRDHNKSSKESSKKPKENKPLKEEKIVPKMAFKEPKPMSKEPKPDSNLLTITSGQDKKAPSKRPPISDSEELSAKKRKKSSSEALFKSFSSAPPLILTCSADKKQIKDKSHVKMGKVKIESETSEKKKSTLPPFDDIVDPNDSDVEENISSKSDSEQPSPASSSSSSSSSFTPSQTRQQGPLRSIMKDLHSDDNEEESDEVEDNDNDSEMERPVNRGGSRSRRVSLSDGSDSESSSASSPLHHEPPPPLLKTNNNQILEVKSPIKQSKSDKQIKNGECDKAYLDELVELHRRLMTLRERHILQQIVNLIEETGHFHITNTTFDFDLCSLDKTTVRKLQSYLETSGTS
Vif TR-FRET – HIV-1 Vif–A3G interaction blockers – biochemical, TR-FRET, GST-Vif 1-94, biotin-A3G peptide, dose response retest, primary screen (AID 1117319); TR-FRET GST-Vif / biotin-A3G peptide binding; higher % means a stronger effect; test concentration not given here; strong numbers were not always called active; one-dose inhibition, %; IC50 in µM for titrated hits; 260,000 tested, 0.57% active;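 active = above the screen mean plus three standard deviations and confirmed in dose response; inconclusive = results disagree or hit not tested in dose response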;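 also: Vif residues 1-94 fused to GST binding biotinylated APOBEC3G peptide 110-148; 0% = full assay without inhibitor and 100% = GST in place of GST-Vif; retest series ran down from 100 µM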
Beta cell apopt – blocks beta cell apoptosis | 300,000 tested, 0.8% active | INS-1E cytokine-induced death, ATP luminescence, 48 h; percent of positive-control rescue, neutral wells zero | protection from apoptosis, % (test concentration not listed);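 active = all replicates at 75% or more, or half of them and the mean; inconclusive = half reach 75% but not the mean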;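 also: 0% = cytokine-treated negative control wells and 100% = positive control rescue; higher means more ATP so stronger rescue from cytokine killing; wells of about 40 µL received 100 nL stock; the first replicate is given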
rRNA inh HTS – inhibitors of bacterial rRNA selective over humanized ribosomes; E. coli WT GFP vs humanized-ribosome RFP mutants, fluorescence, 24 h; stronger effect = lower value; DMSO median 0, no signal -100; GFP signal change (wild-type ribosome), % (test concentration not listed); 350,000 tested, 1.6% active; AID 720706;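 active = significant combined selectivity score with lowered wild-type GFP, culture density cut under 30%, mutant RFP and density less affected; inactive = any of these conditions unmet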; also: one replicate is shown; some compounds called inactive have numbers as strong as hits
rRNA inh HTS OD600 – second read-out of rRNA inh HTS, no call of its own (marks repeat the call); OD600 change, %; measured here: OD600 growth;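 optical density of the mix in the first replicate; 0 = DMSO median and -100 = no signal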
rRNA inh HTS RFP – further read-out of rRNA inh HTS, marked with its call; RFP signal change, %; measured here: RFP humanized mutant strains;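 first replicate; 0 = DMSO median and -100 = no signal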
An asterisk follows results filed as active; ? = inconclusive; nt = not tested or not shown; & = joins results of further samples.

SMILES	A1 inh	RanGTP-Impb inh	Calb FLC	T cruzi inh	MLL AF4-AF9 inh	Vif TR-FRET	Beta cell apopt	rRNA inh HTS	rRNA inh HTS OD600	rRNA inh HTS RFP
Cc1ncsc1C(=O)N1CCCC(C(=O)c2ccc3ccccc3c2)C1 (stereo unspecified)	1.3	4.6	3	4	2.5	-1%	-5	-6	-10	-0.7
CCC(=O)c1ccc(N2CCOCC2)c(F)c1	0.0	0.7	-4	-6	nt	-5%	2	nt	nt	nt
Cc1ccc(CNc2nc3ccccc3n3cnnc23)cc1	0.1	1.9	8	-16	0.9	-8%	9	17	18	0.0
CSc1nnc(C(C)(C)C)c(=O)n1/N=C/c1ccc(C(C)C)cc1	0.4	1.1	-11	2	-2.2	13%	3	0	9	-3.7
C=C(C)c1cccc(C(C)(C)NC(=O)Nc2nnc(C(C)C)s2)c1	-0.8	-0.3	3	8	0.9	15%	-6	nt	nt	nt
O=C(c1ccc(F)cc1)N1CCN=C1c1ccccc1	0.5	-0.3	-3	-3	nt	2%	-1	nt	nt	nt
COc1ccc(CCNc2cc(C)nc3c(-c4ccccc4)c(C)nn23)cc1OC	0.2	-3.0	-7	24	4.2	-6%	-14	-27	-26	2.8
CCn1c(-c2cc(-c3cc(OC)ccc3OC)nc3ccccc23)n[nH]c1=S	0.1	4.7	30	2	-73	-4%	2	-13	-22	-0.8
CCC(=O)N1N=C(c2ccc(NS(=O)(=O)c3ccc(C)cc3)cc2)CC1c1ccco1 (stereo unspecified)	-1.1	nt	nt	nt	8.7	nt	2	-6	-10	0.6
O=C(c1cccc(Br)c1)N1CCN(C(=O)N2CCOCC2)CC1	1.3	-0.5	0	-3	nt	-5%	-3	nt	nt	nt
COCCSc1nnc(NC(=O)CS(=O)(=O)c2ccccc2)s1	0.1	2.0	-1	-8	-2.8	nt	-4	7	1	-2.5
Cc1nc(NCCN2CCOCC2)c2nnn(Cc3ccccc3Cl)c2n1	2.0	1.9	-5	6	nt	28%	3	nt	nt	nt
CCSc1nnc(NC(=O)c2nc(-c3ccccc3)n(-c3ccccc3)n2)s1	1.4	-1.5	2	5	nt	-4%	5	nt	nt	nt
CCN(CC)C(=O)C1CCC(C)(C(=O)O)C1(C)C (stereo unspecified)	-0.1	1.3	2	7	nt	2%	nt	nt	nt	nt
COc1ccc(S(=O)(=O)NCC2CCC(C(=O)NCc3ccc(F)cc3)CC2)cc1 (stereo unspecified)	0.2	-5.0	16	-10	-1.8	1%	-5	8	7	-1.2
OCCC1CN(Cc2cnn(-c3ccccc3Cl)c2)CCN1Cc1ccsc1 (stereo unspecified)	-0.8	-1.0	18	13	2.1	7%	-1	3	-3	2.3
O=C(Nc1nc(-c2nc3ccccc3s2)cs1)C1CC1	-2.5	-0.9	4	-10	-5.3	-25%	0	-24	-26	-4.7
CC[C@H](C)[C@@H](CN[C@H](C)CNC)NCCC(c1ccccc1)c1ccccc1	-0.4	3.7	-20	-4	11	nt	-7	-21	-35	30
O=C(N1CCN(c2ccc(F)cc2)CC1)C12CC3CC(CC(C3)C1)C2	0.9	?	-29	11	nt	-7%	15	nt	nt	nt
CCNC(=S)N/N=C(\C)c1ccco1	-0.5	-3.6	-7	-11	-4.7	-2%	-8	-2	-3	-0.2
O=[N+]([O-])c1ccccc1-n1cnc2ccccc21	0.3	-2.3	19	-9	1.5	?	-14	12	7	-1.6
COc1ccc(Nc2nc3ccccc3nc2C)cc1	0.0	2.3	31	4	nt	?	-5	nt	nt	nt
COc1ccc(N2CCN(S(=O)(=O)c3cc4c(cc3C)N(C(C)=O)CCO4)CC2)cc1	nt	0.2	6	5	13	nt	7	-1	-11	-2.3
CCNC(=S)N/N=C/c1c(C)nn(-c2cccc(Cl)c2)c1Cl	-0.2	3.2	3	-6	-1.5	5%	0	nt	nt	nt
Cc1n(CC(=O)c2ccc(F)cc2)c2ccccc2[n+]1C	0.5	-3.0	-25	-18	-3.5	-2%	5	16	6	-0.8
CCC(C)NC(=O)CSc1ccc(NC(C)=O)cc1 (stereo unspecified)	1.3	-2.4	-15	-11	nt	5%	nt	nt	nt	nt
CCC1(c2ccccc2)NC(=O)N(CC(=O)c2ccc3c(c2)OCO3)C1=O (stereo unspecified)	-0.4	1.9	-7	0	-1.5	0%	-3	-19	-16	-6.4
Cc1ccc(C(=O)c2c(NC(=O)c3ccccc3)sc(C)c2C)cc1	0.5	-0.5	38	25	nt	2%	3	nt	nt	nt
COc1ccccc1OCCNC(=O)c1ccc(C(C)(C)C)cc1	0.8	2.7	-5	12	0.3	nt	0	-11	-2	5.2
CCc1sc(NC(=O)C(C)C)nc1-c1ccccc1	1.2	3.9	-33	16	0.7	-10%	6	-14	-14	3.3
COc1ccc(NC(=O)N2CCN(c3cccc(C(F)(F)F)c3)CC2)cc1OC	0.0	9.6	33	-14	nt	0%	-11	nt	nt	nt
Cc1ccc(NC(=O)NNC(=O)C2CC(c3cccnc3)=NO2)cc1 (stereo unspecified)	0.2	-0.4	1	-5	nt	-2%	-6	nt	nt	nt
Cc1cc(CN2CCOCC2)c(O)c(C2(C)CCCCC2)c1	0.3	-1.8	2	11	nt	?	10	nt	nt	nt
COC(=O)C1=C(C)N(c2ccc(OC)c(OC)c2)C(=O)/C1=C\c1ccco1	-0.2	-3.8	-2	1	3.2	?	-10	4	10	-0.6
O=c1c2c([nH]c3ccccc13)CCCCCC2	0.0	-1.3	0	31	nt	72%	6	nt	nt	nt
O=C(NN1C(=O)C2C(C1=O)C1C=CC2C12CC2)c1ccccc1 (stereo unspecified)	0.4	2.5	-3	-5	1.0	-8%	3	5	10	-2.8
COc1cc(OC)c(C2C(C#N)=C(N)OC3=C2C(=O)CC(C)(C)C3)cc1OC (stereo unspecified)	-0.7	-1.2	14	-1	-6.3	-2%	-3	nt	nt	nt
Cc1ccc(-c2nn(-c3ccccc3)cc2CO)o1	0.0	0.1	2	-16	nt	-3%	-4	nt	nt	nt
CC(C)(C)SC(=O)CC1NS(=O)(=O)OCC1NC(=O)OCC(Cl)(Cl)Cl (stereo unspecified)	0.4	-0.9	9	-7	nt	nt	nt	-6	-15	0.6
Cn1c(-[n+]2c(-c3ccccc3)cc(-c3ccccc3)cc2-c2ccccc2)nc2cc([N+](=O)[O-])ccc21	?	0.8	3	28	nt	19%	34	nt	nt	nt
CNc1ncc(C(=O)c2ccc(Cl)c(Cl)c2)s1	1.2	0.0	38	-23	nt	3%	4	nt	nt	nt
COc1ccc(S(=O)(=O)Nc2ccc(-c3ccc4nnc(C)n4n3)cc2)c(OC)c1	-0.1	nt	nt	nt	-4.4	4%	-11	-4	-13	3.4
C=C(C)CNC(=S)N=Nc1c(O)[nH]c2ccc([N+](=O)[O-])cc12	0.1	-4.8	?	34	8.8	21%	28	-12	-10	-2.7
COCCn1c(SCC(=O)Nc2cc(OC)ccc2OC)nc2c(c1=O)SC(C)C2 (stereo unspecified)	-0.1	0.5	8	19	-31	20%	5	0	2	1.7
CC1CCN(CCCNC(=O)C2CCC(CNS(=O)(=O)c3cccc4nsnc34)CC2)CC1 (stereo unspecified)	nt	2.1	3	9	1.7	nt	nt	-4	-31	-5.2
Cc1cc(NC(=O)CSc2nnc(C(C)N(C)C)n2-c2ccc(F)cc2)no1 (stereo unspecified)	-0.6	2.7	12	-7	-1.2	-12%	1	5	3	-6.0
NS(=O)(=O)c1ccc(CCNC(=O)C(=O)c2c[nH]c3ccccc23)cc1	0.2	17*	0	-10	4.0	?	-1	-22*	-2.6*	-3.9*
O=C(CCNS(=O)(=O)c1cccc2nonc12)NC1CCCCCC1	0.1	0.7	-4	-8	0.3	nt	nt	3	-1	-1.3
O=C(O)CCCNc1ccc(S(=O)(=O)N2CCCCC2)cc1	0.6	-1.9	-14	-5	-1.6	12%	-3	-3	-2	-2.2
O=C(COC(=O)Cc1ccc(Br)cc1)NCC1CCCO1 (stereo unspecified)	-0.9	nt	nt	nt	-1.6	-3%	0	2	-1	-1.8
(next part)
SMILES	A1 inh	RanGTP-Impb inh	Calb FLC	T cruzi inh	MLL AF4-AF9 inh	Vif TR-FRET	Beta cell apopt	rRNA inh HTS	rRNA inh HTS OD600	rRNA inh HTS RFP
Cc1ccc(-c2nn(CC(=O)NCc3ccccn3)c(=O)c3ccccc23)cc1S(=O)(=O)N(C)C	1.3	0.2	?	12	2.5	-5%	0	4	5	1.3
C/C(=N/NC(=O)c1ccc(Cl)s1)c1ccc(NC(=O)COc2ccc(Cl)cc2)cc1	3.3	-1.9	6	1	nt	28%	6	nt	nt	nt
Cc1nnc(NCc2ccncc2)c2ccccc12	-0.1	0.9	2	9	nt	5%	0	nt	nt	nt
CC(C)NC(=O)COCc1cc(-c2ccc3c(c2)OCO3)on1	0.1	4.6	-2	-26	-0.2	3%	-1	11	6	0.9
COc1ccc(C(c2c(C)n(C)n(-c3ccccc3)c2=O)c2c(C)n(C)n(-c3ccccc3)c2=O)cc1O	-0.5	nt	4	7	nt	-1%	-6	nt	nt	nt
Cc1ccccc1C(=O)c1cccn1CC(=O)NCC(C)c1ccccc1 (stereo unspecified)	2.9	2.4	13	18	-1.6	0%	2	-38	-50	-8.3
COc1cc(CC(=O)OCC(=O)N2CCCCC2)cc(OC)c1OC	-0.3	2.4	4	-11	0.0	-1%	-12	9	9	-0.5
COc1ccccc1CCC(=O)Nc1ccc(S(=O)(=O)Nc2cc(C)nc(C)n2)cc1	0.4	3.5	8	3	-0.4	-6%	-2	10	-6	0.9
Cc1cc(C(=O)Nc2nnc(C3CC3)s2)c(C)s1	-6.5	nt	nt	nt	-9.8	4%	12	0	5	-0.3
Cc1ccccc1N=C1NC(=O)CS1	0.2	1.5	-10	-8	nt	-2%	-10	nt	nt	nt
CC(C)CN(C(=O)c1ccc(=O)n(C)n1)c1c(N)n(Cc2ccccc2)c(=O)[nH]c1=O	-0.4	nt	-7	-2	-3.1	3%	-3	8	13	1.9
CC(C)CNC(=O)c1c(N)n(/N=C/c2ccccn2)c2nc3ccccc3nc12	0.4	7.9	-20	10	nt	-2%&7%	8	nt	nt	nt
COc1ccccc1CNC(=O)CNC(=O)N1CC(=O)Nc2ccccc21	-1.2	0.4	-4	8	-19	nt	nt	4	11	0.2
CC(C)c1nn2c(=O)cc(O)nc2s1	0.1	3.8	4	-13	-3.3	-2%	-9	1	3	-4.3
COc1cccc(NC(=O)N(Cc2cc3cc(C)cc(C)c3[nH]c2=O)CC2COCCO2)c1 (stereo unspecified)	-0.1	-1.7	4	7	nt	-2%	7	nt	nt	nt
CCC(=O)Nc1c(C)cc(C)cc1Cl	-0.3	1.6	-3	-15	nt	1%	6	nt	nt	nt

From PubChem

This is a subset. The share of hits here may be higher or lower than overall.
